# rRNA inh HTS: inhibits bacterial ribosomal RNA function over humanized ribosomes; E. coli WT GFP vs humanized-ribosome RFP mutants, fluorescence, 24 h; hits give low values; DMSO median 0, no signal -100; GFP signal change (wild-type ribosome), % (test concentration not listed); 350,000 tested, 1.6% active; AID 720706;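 active = significant combined selectivity score with lowered wild-type GFP, culture density cut under 30%, mutant RFP and density less affected; inactive = any of these conditions unmet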; note: one replicate is shown; some compounds called inactive have numbers as strong as hits
# MLL AF4-AF9 inh: MLL-AF4/AF9 protein interaction inhibition; inhibition, % at 10 µM; AlphaScreen, biotin-AF4 peptide binding to FLAG-AF9; P42568; 350,000 tested, 0.47% active;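 active = every replicate reaching a set inhibition limit, whatever the replicate mean, cut at about 25% in these data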;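 note: 0% = plate neutral control median and 100% = total signal loss; the record names both 10 and 1 µM as test concentration; the first replicate is given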
# Target sequence (P42568 whole entry, looked up): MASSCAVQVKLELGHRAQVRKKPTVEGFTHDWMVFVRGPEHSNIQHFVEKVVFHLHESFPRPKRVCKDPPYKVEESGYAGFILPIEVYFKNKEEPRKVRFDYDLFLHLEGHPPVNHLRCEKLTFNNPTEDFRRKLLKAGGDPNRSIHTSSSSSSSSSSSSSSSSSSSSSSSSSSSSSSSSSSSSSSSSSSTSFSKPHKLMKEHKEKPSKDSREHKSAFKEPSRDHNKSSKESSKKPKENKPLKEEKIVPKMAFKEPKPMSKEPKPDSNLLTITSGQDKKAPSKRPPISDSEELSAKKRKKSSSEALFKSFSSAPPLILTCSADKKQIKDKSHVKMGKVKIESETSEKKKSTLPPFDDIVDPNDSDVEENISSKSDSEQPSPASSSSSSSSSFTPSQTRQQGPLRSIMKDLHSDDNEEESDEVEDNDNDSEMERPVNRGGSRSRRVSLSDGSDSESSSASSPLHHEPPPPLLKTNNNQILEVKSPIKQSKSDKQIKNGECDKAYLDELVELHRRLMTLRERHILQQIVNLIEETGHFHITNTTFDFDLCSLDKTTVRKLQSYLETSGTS
# rRNA inh HTS OD600: second read-out of rRNA inh HTS, no call of its own (marks repeat the call); OD600 change, %; measured here: OD600 growth;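 optical density of the mix in the first replicate; 0 = DMSO median and -100 = no signal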
# rRNA inh HTS RFP: further read-out of rRNA inh HTS, marked with its call; RFP signal change, %; measured here: RFP humanized mutant strains;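 first replicate; 0 = DMSO median and -100 = no signal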
# Active calls of the source: *. The list is partial. The share of hits here may be higher or lower than overall.
SMILES,rRNA inh HTS,rRNA inh HTS OD600,rRNA inh HTS RFP,MLL AF4-AF9 inh
O=C(c1ccc(N2CCOCC2)c([N+](=O)[O-])c1)N1CCN(c2ccccc2)CC1,-5,-8,-2.6,-1.2
CCC(=O)NC[C@@H]1[C@H](c2ccccc2)[C@H](CO)N1C(=O)C1CCC1,-2,-3,-1.4,-1.2
O=C1CN(Cc2ccc(F)cc2)C[C@H]2[C@@H](c3ccc(Br)cc3)[C@@H](CO)N12,-2,-1,-3.2,-16
CO[C@H]1CN(C)C(=O)c2ccc(NC(=O)CC(F)(F)F)cc2OC[C@@H](C)N(C(=O)C2CCCCC2)C[C@@H]1C,-1,-5,4.1,-3.2
C/C=C/c1cnc2c(c1)C(=O)N([C@@H](C)CO)C[C@@H](C)[C@@H](CN(C)Cc1ccc(F)cc1)O2,2,2,-0.8,-5.0
COc1ccc2c(c1)C[C@]1(C)c3ccccc3C(=O)N(Cc3ccccc3)[C@H]21,-13,-21,-15,0.2
O=C(O)C[C@H]1C[C@@H]2c3cc(NC(=O)c4cccnc4)ccc3O[C@@H]2[C@@H](CO)O1,1,5,0.7,-2.1
CCS(=O)(=O)Nc1ccc2c(c1)C(=O)N(C)C[C@@H](OC)[C@@H](C)CN(C(C)=O)[C@@H](C)CO2,2,1,-1.6,-0.3
Cc1ccc(N2CCN(C(=O)C(=O)c3ccc4c(c3)OCO4)CC2)cc1,-2,5,5.1,-0.2
CCCNC(=O)N(C)C[C@H]1Oc2cc(Br)ccc2S(=O)(=O)N([C@@H](C)CO)C[C@H]1C,-1,0,-3.6,3.5
C[C@@H]1CN([C@H](C)CO)C(=O)c2cccc(NC(=O)c3nc4ccccc4s3)c2O[C@@H]1CN(C)Cc1ccccc1,-14,-18,13,17
CC(C)NC(=O)Nc1ccc2c(c1)C(=O)N([C@@H](C)CO)C[C@@H](C)[C@@H](CN(C)C(=O)NC1CCCCC1)OCCCC[C@@H](C)O2,-2,-7,-0.7,-17
O=C(CCN1CCCCC1)N[C@@H]1CC[C@H](CCn2cc(-c3cccc(F)c3)nn2)O[C@@H]1CO,-4,1,-0.7,2.2
C[C@@H]1CN([C@@H](C)CO)C(=O)CCCn2cc(nn2)CO[C@@H]1CN(C)C(=O)Nc1ccnc(N2CCOCC2)c1,0,0,-0.7,-1.3
COCC(=O)N1[C@@H](CO)[C@H](c2ccc(-c3ccccc3OC)cc2)C12CN(C(C)=O)C2,3,9,0.0,0.5
C[C@@H]1CN([C@H](C)CO)C(=O)CCCn2cc(nn2)CO[C@@H]1CN(C)S(=O)(=O)c1ccc(Oc2ccccc2)cc1,0,-17,5.7,1.6
Cc1ccccc1-c1ccc([C@@H]2[C@@H](CO)N3CCCCN(S(=O)(=O)Cc4ccccc4)C[C@H]23)cc1,-57,-79,-19,6.1
C[C@@H]1CCCCO[C@@H](CN(C)Cc2ccc3c(c2)OCO3)[C@@H](C)CN([C@@H](C)CO)C(=O)c2cc(NS(C)(=O)=O)ccc2O1,1,20,-2.0,2.5
CCc1c(C2CC2)ncn1Cc1cccc(-c2ccccc2)c1,-54,-75,-18,21
COc1ccc2c3c([nH]c2c1)[C@@H](CO)N(C(=O)c1cccnc1)CC31CN(Cc2cccnc2)C1,3,4,-2.8,1.0
CS(=O)(=O)N1[C@@H]2c3cccc(=O)n3C[C@H]1[C@H](CO)[C@H]2C(=O)NCc1ccccc1,0,0,-3.5,-0.6
CO[C@@H]1CC[C@H]2CCN(C)C(=O)C[C@@H](c3ccccc3)CN(C)C(=O)c3cccc(C#N)c3OC[C@H]1O2,-2,2,-5.6,9.1
C[C@@H]1CN([C@@H](C)CO)C(=O)c2cccc(N(C)C)c2O[C@@H]1CN(C)S(C)(=O)=O,0,12,1.6,-3.8
O=C(C[C@H]1C[C@H]2c3cc(NC(=O)C4CCC4)ccc3O[C@H]2[C@H](CO)O1)NCCN1CCCCC1,5,4,0.8,0.2
COc1ccc(NC(=O)Nc2ccc3c(c2)CC(=O)N([C@H](C)CO)C[C@@H](C)[C@@H](CN(C)Cc2ccc(C(=O)O)cc2)O3)cc1,7,11,-3.1,-1.3
SMILES,rRNA inh HTS,rRNA inh HTS OD600,rRNA inh HTS RFP,MLL AF4-AF9 inh
C[C@H]1CN([C@@H](C)CO)C(=O)Cc2cc(NC(=O)Cc3ccccc3)ccc2O[C@H]1CN(C)Cc1ccc2c(c1)OCO2,-2,-3,0.8,-2.4
C[C@@H]1CN([C@@H](C)CO)S(=O)(=O)c2ccc(-c3cccc(C#N)c3)cc2O[C@H]1CN(C)C(=O)c1ccc(F)cc1,-11,-13,-1.2,-0.1
C#CCNC(=O)C[C@H]1C[C@@]2(C(=O)OC)C(=C[C@H](COCc3ccccc3)O[C@@H]2C)N(Cc2ccc3c(c2)OCO3)C1=O,-11,-9,7.6,0.3
O=C(Cc1ccncc1)NCC[C@@H]1CC[C@H](NC(=O)Nc2cccc(F)c2)[C@H](CO)O1,0,-1,-0.1,2.3
CCCNC(=O)N1CC(=O)N2[C@H](C1)[C@H](c1ccc(-c3ccc(F)cc3)cc1)[C@@H]2CO,0,2,0.2,-7.3
COc1ccc(S(=O)(=O)N(C)C[C@H]2Oc3ccc(NC(=O)NC(C)C)cc3CC(=O)N([C@H](C)CO)C[C@H]2C)cc1,4,6,-2.2,-1.2
CC(C)NC(=O)N(C)C[C@H]1Oc2ccc(NC(=O)Nc3ccc(F)cc3)cc2C(=O)N([C@H](C)CO)C[C@H]1C,3,5,0.3,0.5
Cc1noc(C)c1NC(=O)N[C@@H]1CC[C@@H](CCNC(=O)C2CCCC2)O[C@H]1CO,3,0,0.0,-1.5
C[C@@H]1CN([C@@H](C)CO)C(=O)c2cccc(NS(=O)(=O)c3ccc(Cl)cc3)c2O[C@H]1CN(C)Cc1ccccc1,0,-1,2.8,1.6
C[C@H]1CN([C@@H](C)CO)C(=O)Cc2cc(NS(C)(=O)=O)ccc2O[C@H]1CN(C)Cc1ccc(C(=O)O)cc1,3,6,1.7,-2.2
C[C@H](CO)N1C[C@H](C)[C@@H](CN(C)CC2CCCCC2)OCCCC[C@H](C)Oc2ccc(NC(=O)C3CCCCC3)cc2C1=O,3,0,0.3,-9.4
O=C(C[C@@H]1CC[C@@H](NC(=O)CC2CC2)[C@@H](CO)O1)NCc1ccc(-c2ccccc2)cc1,-3,-11,-1.5,-0.8
C[C@@H]1CN([C@H](C)CO)C(=O)c2cccc(NS(=O)(=O)c3ccc(Cl)cc3)c2O[C@@H]1CN(C)Cc1ccccc1,-4,-5,0.0,0.2
C[C@@H]1CN([C@@H](C)CO)C(=O)c2cc(NS(=O)(=O)c3ccc(F)cc3)ccc2O[C@@H](C)CCCCO[C@H]1CN(C)C,0,-3,-0.5,-0.4
O=C(Cc1cccnc1)N1CC(=O)N2[C@H](CO)[C@@H](c3ccc(/C=C/c4ccccc4)cc3)[C@@H]2C1,-10,-25,13,8.5
O=C(NC1CCCCC1)N[C@@H]1CC[C@@H](CCNS(=O)(=O)c2ccc(F)cc2)O[C@H]1CO,1,3,-1.1,0.5
COc1cccc(S(=O)(=O)N(C)C[C@@H]2Oc3ncc(C#CCN(C)C)cc3C(=O)N([C@@H](C)CO)C[C@H]2C)c1,3,16,0.4,1.0
CNC[C@@H]1Oc2ncc(-c3cccc(C(=O)N(C)C)c3)cc2C(=O)N([C@@H](C)CO)C[C@H]1C,1,8,-0.6,-2.9
C[C@@H]1CN([C@H](C)CO)S(=O)(=O)c2ccc(C#Cc3ccncc3)cc2O[C@@H]1CN(C)C(=O)C1CCOCC1,5,10,-2.0,-2.1
C/C=C/c1ccc([C@@H]2[C@@H](CO)N3C(=O)CN(S(=O)(=O)c4ccccc4)C[C@@H]23)cc1,-6,0,2.6,1.3
C[C@@H]1CCCCO[C@@H](CN(C)C(=O)Nc2ccc(C(F)(F)F)cc2)[C@H](C)CN([C@@H](C)CO)C(=O)c2cc(NC(=O)Nc3ccc4c(c3)OCO4)ccc2O1,1,3,-2.5,-1.3
CN1C(=O)c2cc(NC(=O)c3ccc(F)cc3)ccc2OC[C@H]2O[C@@H](CC(=O)N3CCOCC3)CC[C@H]21,0,0,-2.1,-0.9
COc1cccc(NC(=O)C[C@@H]2CC[C@H]3[C@@H](COc4ccc(NC(=O)C5CCC5)cc4C(=O)N3C)O2)c1,0,2,-0.5,-1.9
C[C@@H]1CN([C@H](C)CO)C(=O)c2cc(-c3cccc(F)c3)cnc2O[C@@H]1CN(C)CC1CCOCC1,-3,2,-0.3,-2.4
O=Cc1ccc(-c2ccc([N+](=O)[O-])cc2Cl)o1,3,11,-0.1,1.6

# One compound at a time, as listed above. Order of screens: rRNA inh HTS	rRNA inh HTS OD600	rRNA inh HTS RFP	MLL AF4-AF9 inh
# C[C@@H]1CN([C@@H](C)CO)C(=O)c2cc(NS(=O)(=O)c3ccc(F)cc3)ccc2O[C@@H](C)CCCCO[C@H]1CN(C)C is listed as 0	-3	-0.5	-0.4
# C/C=C/c1ccc([C@@H]2[C@@H](CO)N3C(=O)CN(S(=O)(=O)c4ccccc4)C[C@@H]23)cc1 is listed as -6	0	2.6	1.3
# C[C@@H]1CN([C@@H](C)CO)S(=O)(=O)c2ccc(-c3cccc(C#N)c3)cc2O[C@H]1CN(C)C(=O)c1ccc(F)cc1 is listed as -11	-13	-1.2	-0.1

# Ordered by heavy-atom count (ascending): part of the list above.
SMILES,rRNA inh HTS,rRNA inh HTS OD600,rRNA inh HTS RFP,MLL AF4-AF9 inh
O=C(Cc1cccnc1)N1CC(=O)N2[C@H](CO)[C@@H](c3ccc(/C=C/c4ccccc4)cc3)[C@@H]2C1,-10,-25,13,8.5
C[C@H]1CN([C@@H](C)CO)C(=O)Cc2cc(NS(C)(=O)=O)ccc2O[C@H]1CN(C)Cc1ccc(C(=O)O)cc1,3,6,1.7,-2.2
COc1ccc(S(=O)(=O)N(C)C[C@H]2Oc3ccc(NC(=O)NC(C)C)cc3CC(=O)N([C@H](C)CO)C[C@H]2C)cc1,4,6,-2.2,-1.2
C[C@@H]1CCCCO[C@@H](CN(C)C(=O)Nc2ccc(C(F)(F)F)cc2)[C@H](C)CN([C@@H](C)CO)C(=O)c2cc(NC(=O)Nc3ccc4c(c3)OCO4)ccc2O1,1,3,-2.5,-1.3

# Next part.
SMILES,rRNA inh HTS,rRNA inh HTS OD600,rRNA inh HTS RFP,MLL AF4-AF9 inh
Cc1ccccc1NC(=O)Nc1ccc2c(c1)C(=O)N(C)[C@H]1CC[C@@H](CC(=O)NCC3CC3)O[C@H]1CO2,-2,-10,1.5,0.9
C[C@H]1CN([C@@H](C)CO)S(=O)(=O)c2ccc(-c3cccnc3)cc2O[C@@H]1CN(C)CC1CCOCC1,0,-3,1.1,6.4
C[C@@H]1CN([C@H](C)CO)C(=O)c2cc(NC(=O)CCCN(C)C)ccc2O[C@H]1CN(C)C,1,-3,-1.5,-2.7
c1cc(CN2[C@@H]3CNC[C@H]2C3c2ccc(-c3ccncc3)cc2)cc(-c2ccncc2)c1 (some centres not stated),2,6,1.7,3.3
Cc1cccc(C)c1NC(=O)CN(C)C(=O)C1CC1C (configuration not stated),-1,5,-0.8,-2.9
C[C@@H]1CCCCO[C@@H](CN(C)C(=O)Nc2ccccc2)[C@H](C)CN([C@H](C)CO)C(=O)c2cc(NS(=O)(=O)c3ccccc3)ccc2O1,-2,0,-0.6,-3.1
CC(C)CC#Cc1ccc2c(c1)O[C@@H](CN(C)C(=O)NC(C)C)[C@H](C)CN([C@@H](C)CO)S2(=O)=O,1,-17,-2.0,-0.5
O=C(NCc1ccccc1)C1c2ccccc2OCC(=O)N1C1CC1 (configuration not stated),31,18,11,1.2
O=C(CCN1CCCCC1)N[C@@H]1CC[C@@H](CCNS(=O)(=O)c2ccc(Cl)cc2)O[C@H]1CO,0,-2,-4.2,1.1
CO[C@@H]1CN(C)C(=O)c2cc(NC(C)=O)ccc2OC[C@H](C)NC[C@@H]1C,3,2,-0.4,-2.9
C[C@@H]1CN([C@@H](C)CO)C(=O)c2cccc(NS(=O)(=O)c3cn(C)cn3)c2O[C@@H]1CN(C)Cc1ccc(C(F)(F)F)cc1,-1,4,-1.6,0.3
CCN(C[C@@H]1N[C@@H](CO)[C@H]1c1ccccc1)C(=O)c1ccncc1,0,5,0.6,-0.5
CSc1cccc(NC(=O)CCCOc2cc(=O)n(C)c3ccccc23)c1,0,2,0.0,-5.8
COCC(=O)N1CC[C@@H]2[C@H]1c1cc(-c3ccc(OC)cc3)ccc1N(C)[C@@H]2CO,-2,0,-6.7,-2.7
CS(=O)(=O)N1[C@H](C#N)[C@H](c2ccccc2-c2ccccc2F)[C@H]1CO,2,-1,2.2,2.6
CO[C@H](CN(C)C(=O)c1cnccn1)[C@H](C)CN([C@H](C)CO)S(=O)(=O)c1ccccc1,1,-3,-3.7,-0.2
CC(C)C#Cc1ccc2c(c1)O[C@H](CN(C)C)[C@@H](C)CN([C@H](C)CO)S2(=O)=O,-2,4,0.3,3.0
COc1ccc2c3c([nH]c2c1)[C@H](CO)N(C(=O)Nc1ccc(F)cc1)CC31CN(S(=O)(=O)c2cn(C)cn2)C1,-1,-1,-1.1,0.8
Cc1noc(C)c1NC(=O)N[C@@H]1CC[C@H](CCNC(=O)C2CCOCC2)O[C@H]1CO,1,3,-1.5,-22
O=C1CN(Cc2ccc(F)cc2)C[C@@H]2[C@H](c3ccc(Br)cc3)[C@@H](CO)N12,-3,-7,0.8,-6.2
C[C@@H]1CN([C@@H](C)CO)C(=O)c2cc(-c3ccccc3F)cnc2O[C@H]1CN(C)C(=O)C1CC1,-3,-10,-0.2,-2.4
COc1ccc(NC(=O)N(C)C[C@H]2OCCCC[C@H](C)Oc3ccc(NS(=O)(=O)c4cccs4)cc3C(=O)N([C@@H](C)CO)C[C@H]2C)cc1,1,-5,-0.8,-12
